Screens (PubChem)
FGF22 binding: shifts melting point of recombinant human FGF22; calls only at 9.99 µM; AID 651658; recombinant FGF22 thermal shift, SYPRO orange fluorescence; percent of sucrose octasulfate shift, DMSO zero; 340,000 compounds, 1.5% hits; Q9HCT0;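 active = melting point raised past a set limit in the mean and every replicate; inconclusive = no clear call; three in four hits are not shown here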
Target sequence (Q9HCT0 whole entry, looked up): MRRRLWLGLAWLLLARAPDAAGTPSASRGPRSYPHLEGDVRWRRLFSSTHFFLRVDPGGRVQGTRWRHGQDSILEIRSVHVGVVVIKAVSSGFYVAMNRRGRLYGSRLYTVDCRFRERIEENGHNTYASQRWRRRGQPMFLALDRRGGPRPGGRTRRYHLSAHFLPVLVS
T cruzi repl: blocks replication of Trypanosoma cruzi; T. cruzi beta-gal in NIH3T3, luminescence, 90 h; inhibition, % (test concentration not listed); 300,000 compounds, 1.4% hits; AID 1885;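 active = mean inhibition across valid replicates above about 55%, limit read from the data; inconclusive = mean below that limit but half or more replicates reach it; inactive = mean below it, under half of replicates reach it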;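 note: signal also drops with host cell toxicity which is not excluded here; 0% = plate median of DMSO wells and 100% = zero luminescence signal; higher percent means less beta-gal luminescence so fewer parasites; stock transfer was 50 nL into about 50 µL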
ALR inh: blocks human ALR sulfhydryl oxidase activity | P55789 | purified ALR, DTT oxidation, H2O2 HRP-luminol luminescence | inhibition, % (concentration not given with the values) | 290,000 compounds, 3.8% hits | AID 485317;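 active = mean and each replicate at 75% or more; inconclusive = only one of the two met; inactive = neither met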;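 note: stock transfer was 7.5 nL into about 7.5 µL; 0% = neutral wells and 100% = wells with inactivated enzyme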
Target sequence (P55789 whole entry, looked up): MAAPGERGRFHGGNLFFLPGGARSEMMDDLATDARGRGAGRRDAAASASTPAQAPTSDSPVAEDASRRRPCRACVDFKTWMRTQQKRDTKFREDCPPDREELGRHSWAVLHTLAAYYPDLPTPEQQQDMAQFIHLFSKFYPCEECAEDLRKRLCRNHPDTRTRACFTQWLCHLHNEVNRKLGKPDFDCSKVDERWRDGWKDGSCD
AF4-AF9 inh: blocks AF4 peptide binding to human AF9. AlphaScreen, biotin-AF4 peptide binding to FLAG-AF9. AID 651704. P42568. 350,000 compounds, 0.47% hits. inhibition, % at 10 µM;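 active = every replicate reaching a set inhibition limit, whatever the replicate mean, cut at about 25% in these data; inconclusive = mean inhibition reaches that limit but some replicates miss it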;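 note: 0% = plate neutral control median and 100% = total signal loss; the record names both 10 and 1 µM as test concentration; the first replicate is given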
Target sequence (P42568 whole entry, looked up): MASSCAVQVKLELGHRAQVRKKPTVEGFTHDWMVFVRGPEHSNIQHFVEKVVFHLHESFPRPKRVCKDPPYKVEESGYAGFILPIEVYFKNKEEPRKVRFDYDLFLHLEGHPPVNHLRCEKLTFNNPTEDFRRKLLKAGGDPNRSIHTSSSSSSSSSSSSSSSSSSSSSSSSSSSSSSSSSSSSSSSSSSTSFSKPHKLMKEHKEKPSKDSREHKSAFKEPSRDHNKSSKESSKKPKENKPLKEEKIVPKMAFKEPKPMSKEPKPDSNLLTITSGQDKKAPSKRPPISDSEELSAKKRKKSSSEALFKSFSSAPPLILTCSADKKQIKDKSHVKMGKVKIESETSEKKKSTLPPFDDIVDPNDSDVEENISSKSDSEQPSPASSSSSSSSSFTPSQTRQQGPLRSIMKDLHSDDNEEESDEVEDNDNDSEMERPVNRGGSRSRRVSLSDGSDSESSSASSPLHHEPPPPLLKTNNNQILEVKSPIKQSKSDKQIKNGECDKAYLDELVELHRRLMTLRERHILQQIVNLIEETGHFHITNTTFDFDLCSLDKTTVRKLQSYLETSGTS
Beta cell apopt: blocks beta cell apoptosis; 300,000 compounds, 0.8% hits; protection from apoptosis, % (test concentration not listed); INS-1E cytokine-induced death, ATP luminescence, 48 h; percent of positive-control rescue, neutral wells zero;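 active = all replicates at 75% or more, or half of them and the mean; inconclusive = half reach 75% but not the mean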;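 note: 0% = cytokine-treated negative control wells and 100% = positive control rescue; higher means more ATP so stronger rescue from cytokine killing; wells of about 40 µL received 100 nL stock; the first replicate is given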
Calb FLC: affects C. albicans growth with fluconazole. C. albicans CaCi-2 (fluconazole-resistant clinical isolate) + fluconazole, Alamar Blue growth, 48 h. growth inhibition, % (test concentration not listed). 300,000 compounds, 0.57% hits;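 active = most replicates above 75%; inconclusive = exactly half above 75%; inactive = most below 75%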;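 note: all wells also contain fluconazole at 8 µg/ml as a sub-toxic cotreatment; 0% = median of DMSO wells and 100% = median of geldanamycin control wells; wells of about 8 µL received 7.5 nL stock; the first replicate is given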
RanGTP-Imp inh: inhibitors of RanGTP-importin-beta interaction, primary screen, biochemical, FRET, CFP-Ran, YFP-importin-beta, homogeneous | cell-free CFP-Ran/YFP-importin-beta FRET ratio | inhibition, % (concentration not given with the values) | 300,000 compounds, 1.1% hits | AID 2216;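 active = most replicates above 15%; inconclusive = exactly half above 15%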;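 note: 0% = DMSO wells and 100% = Ran loaded with GDP instead of GTP; wells of about 40 µL received 100 nL stock; the first replicate is given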
rRNA inh HTS: inhibitors of bacterial rRNA selective over humanized ribosomes. E. coli WT GFP vs humanized-ribosome RFP mutants, fluorescence, 24 h; active compounds read low; DMSO median 0, no signal -100. GFP signal change (wild-type ribosome), % (no concentration beside the values). 350,000 compounds, 1.6% hits;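 active = significant combined selectivity score with lowered wild-type GFP, culture density cut under 30%, mutant RFP and density less affected; inactive = any of these conditions unmet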; note: one replicate is shown; some compounds called inactive have numbers as strong as hits
rRNA inh HTS OD600: recorded beside rRNA inh HTS, whose call it bears; OD600 change, %; measured here: OD600 growth;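 optical density of the mix in the first replicate; 0 = DMSO median and -100 = no signal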
rRNA inh HTS RFP: second read-out of rRNA inh HTS, no call of its own (marks repeat the call); RFP signal change, %; measured here: RFP humanized mutant strains;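 first replicate; 0 = DMSO median and -100 = no signal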
Starred values were filed as active, the others as inactive; i = inactive; u = inconclusive; x = no result given.

SMILES,AF4-AF9 inh,RanGTP-Imp inh,Beta cell apopt,FGF22 binding,rRNA inh HTS OD600,Calb FLC,T cruzi repl,rRNA inh HTS,rRNA inh HTS RFP,ALR inh
COc1c(C)cc(C(=O)C2CCCN(C(=O)c3csc(C)n3)C2)cc1C (stereo not drawn),3.0,3.9,-2,i,-16,9,9,0,-1.8,-15
COC(=O)CC1C(=O)NCCN1C(=O)c1ccc2oc(C(C)C)nc2c1 (stereo not drawn),-2.2,0.9,-7,i,8,4,-14,6,-2.8,-3
CCN(CCO)C(=O)CC1C(=O)NCCN1Cc1c(F)cccc1Cl (stereo not drawn),-4.1,-1.2,-4,i,-5,5,-9,7,1.6,-5
O=C(C(=O)N1CCCCC1)c1cn(CC(=O)N2CCCCCC2)c2ccccc12,0.1,2.1,-4,i,7,-3,36,4,2.0,-3
C=CCNC(=O)c1c(Cl)cccc1Cl,x,-2.0,-8,x,7,-6,-3,0,-2.3,0
CCOC(=O)CC(Nc1nc(N2CCOCC2)nc(N2CCOCC2)n1)c1ccccc1Cl (stereo not drawn),x,2.0,-1,x,x,-6,32,x,x,4
Cn1c(CC(=O)Nc2cccc(Cl)c2Cl)nnc1SCC(=O)NC1=NCCS1,-0.8,1.5,-7,i,-3,0,11,1,-0.5,x
CC1CCC(NC(=O)Cn2c3c(c(-c4ccccc4Cl)cc2=O)CCC3)CC1 (stereo not drawn),0.4,1.2,-1,i,3,-3,20,2,0.1,-63
CCCCn1c(N)c(N(CC(C)C)C(=O)c2oc3ccc(OCC)cc3c2C)c(=O)[nH]c1=O,-1.8,u,x,i,11,16,5,8,0.0,5
COc1ccc(OC)c(NC(=O)CC2(CC(=O)O)CCCC2)c1,0.9,-0.1,0,i,-8,-2,2,-10,-1.6,x
COC(=O)CCC(=O)OC1(C)C(=O)C2=CN(CCCOC(C)C)C(c3ccc(OC)cc3)=CC2=C(Br)C1=O (stereo not drawn),x,-2.3,-6,x,x,18,45,x,x,x
Cc1nnc(-c2cnn(C)c2N)n1Cc1ccc(Cl)cc1,x,-1.7,-2,x,x,2,-6,x,x,-2
Cc1ccc(NC(=O)CN(C)C(=O)Cn2cc(C(F)(F)F)cc(Cl)c2=O)cc1,x,1.2,-3,x,x,-13,-12,x,x,-17
COc1ccc(C2C(=O)c3ccccc3C2=Nc2ccc(Br)cc2)cc1 (stereo not drawn),-16,u,25,i,-10,-8,15,10,0.4,-4
CCOP(=O)(OCC)/C(=N/OC(=O)c1ccc(Cl)cc1Cl)C(N)=O,-0.7,5.6,-1,i,2,-1,-13,-3,-2.7,2
COc1cc2c(cc1OC)CN(c1ccc(-c3ccccc3OC)nn1)CC2,x,1.2,-1,x,x,32,37,x,x,-24
COc1ccc(CNCC(=O)Nc2ccccc2-n2cccc2)cc1,12,3.5,0,i,-23,0,-15,-18,-4.8,2
Cc1nc2c(C)[n+](CC(=O)c3ccccc3)ccc2n1C,0.6,5.3,4,i,1,4,2,2,1.8,0
Cc1cccc(N(Cc2ccccc2)C(=O)CSC(C)C(=O)Nc2cc(C)on2)c1 (stereo not drawn),-3.0,3.9,-1,i,-45,7,16,-24,-3.8,5
CCOc1ccc(-c2nc(N)ncc2-c2ccccc2OC)c(O)c1,10.0,1.7,-12,i,-3.5*,1,-8,-29*,-5.7*,8

Gathered by group, those above containing fluorine (2)
SMILES,AF4-AF9 inh,RanGTP-Imp inh,Beta cell apopt,FGF22 binding,rRNA inh HTS OD600,Calb FLC,T cruzi repl,rRNA inh HTS,rRNA inh HTS RFP,ALR inh
CCN(CCO)C(=O)CC1C(=O)NCCN1Cc1c(F)cccc1Cl (stereo not drawn),-4.1,-1.2,-4,i,-5,5,-9,7,1.6,-5
Cc1ccc(NC(=O)CN(C)C(=O)Cn2cc(C(F)(F)F)cc(Cl)c2=O)cc1,x,1.2,-3,x,x,-13,-12,x,x,-17

Following part:
SMILES,AF4-AF9 inh,RanGTP-Imp inh,Beta cell apopt,FGF22 binding,rRNA inh HTS OD600,Calb FLC,T cruzi repl,rRNA inh HTS,rRNA inh HTS RFP,ALR inh
COc1ccc(N2C(=O)c3ccccc3C(C)(C)C2=O)cc1,7.4,-1.1,1,i,-11,-1,-2,0,-2.4,x
Cc1cc(N2CCN(C)CC2)nc2ccc(NC(=S)NC3CC3)cc12,4.3,-2.1,-8,i,-7,-3,32,-7,-12,-1
COc1cc(CN2CCN(CCCc3ccccc3)CC2CCO)cc(OC)c1 (stereo not drawn),2.9,27*,4,i,2,-8,-8,1,3.2,-1
Cc1ccc(CN2CCCN(C)CC2)c(C)c1,-1.5,-0.7,-3,i,10,-6,39,17,0.9,5
O=C(Nc1cccnc1)c1ccccc1NS(=O)(=O)c1ccc(F)cc1,2.4,-2.8,4,i,-22*,-7,-10,-32*,-2.6*,0
C(=N\N=C\c1ccccn1)/c1ccccn1,-3.6,-2.5,-4,i,17,-9,-11,10,1.9,-6
Cc1ccc(C)c(CSc2nc3[nH]ncc3c(=O)[nH]2)c1,-5.9,2.4,-4,i,2,13,-40,3,0.8,2
O=C(NC1CCCCC1NC(=O)c1ccco1)c1ccco1 (stereo not drawn),x,5.8,-5,x,9,-1,-9,17,0.8,-2
COC(=O)[C@@H](NC(=O)Nc1cccc(OC)c1)C(C)C,x,-3.5,-2,x,x,-4,0,x,x,2
O=C(Cn1ccc(C(F)(F)F)n1)Nc1ccc(S(=O)(=O)NCc2ccco2)cc1,x,4.4,-3,x,x,-1,-13,x,x,6
O=C(N/C(=C\c1ccccc1)C(=O)N1CCOCC1)c1cccc(Br)c1,-0.4,9.8,x,i,3,32,-2,5,-0.5,7
COc1ccccc1NC(=O)c1ccc(NC(=O)COC(=O)C2CCCCC2)cc1,0.8,-2.4,4,i,-13,u,-6,-1,7.8,9
CCc1nnc(NC(=O)CN2CCOCC2)s1,-5.1,0.5,-8,i,-3,-2,-3,9,1.3,-5
CCC(Oc1ccccc1C)C(=O)N1CCCN(C)CC1 (stereo not drawn),-1.0,x,-2,i,15,x,-3,2,3.3,-2
Fc1ccc2nc(C(F)(F)F)cc(N3CCOCC3)c2c1,1.3,u,0,i,-7,0,-5,-6,-0.9,-4
COc1ccc2nc(NC(=O)CSc3cn[nH]n3)sc2c1,0.1,3.5,2,i,-4,2,20,-9,-1.9,-6
CS(=O)(=O)c1ccc2c(c1)SC1=NC(=O)/C(=C/c3ccco3)C(=N)N12,-11,3.1,2,i,4,8,-8,-2,8.6,8
Cc1onc(-c2ccccc2)c1C(=O)n1cc(Br)cn1,x,-0.9,-1,x,x,1,-8,x,x,x
CC(C)c1ccc(NC(=O)N(CCc2nc3ccccc3[nH]2)C2CCCC2)cc1,x,-4.6,2,x,x,20,21,x,x,-5
CC(=O)c1cccc(NC(=O)c2cnccn2)c1,-5.9,0.7,3,i,4,-4,-7,2,-1.7,0

Brought forward from above: 5 entries, then new ones.
SMILES,AF4-AF9 inh,RanGTP-Imp inh,Beta cell apopt,FGF22 binding,rRNA inh HTS OD600,Calb FLC,T cruzi repl,rRNA inh HTS,rRNA inh HTS RFP,ALR inh
COc1ccc2nc(NC(=O)CSc3cn[nH]n3)sc2c1,0.1,3.5,2,i,-4,2,20,-9,-1.9,-6
CS(=O)(=O)c1ccc2c(c1)SC1=NC(=O)/C(=C/c3ccco3)C(=N)N12,-11,3.1,2,i,4,8,-8,-2,8.6,8
Cc1onc(-c2ccccc2)c1C(=O)n1cc(Br)cn1,x,-0.9,-1,x,x,1,-8,x,x,x
CC(C)c1ccc(NC(=O)N(CCc2nc3ccccc3[nH]2)C2CCCC2)cc1,x,-4.6,2,x,x,20,21,x,x,-5
CC(=O)c1cccc(NC(=O)c2cnccn2)c1,-5.9,0.7,3,i,4,-4,-7,2,-1.7,0
CCCCn1c(N)c(N(CCOC)C(=O)c2ccc(-c3ccccc3)cc2)c(=O)[nH]c1=O,-0.9,-1.0,-2,i,-11,1,-2,0,-1.7,-4
Cc1cc(=O)[nH]c(SCC(=O)N2CCCCCC2)n1,x,-3.0,-9,x,13,-2,5,17,-1.2,-1
COc1ccc(CCNC(=O)c2ccc(CS(=O)(=O)c3ccc(C)cc3)o2)cc1OC,x,-0.5,-1,x,x,0,-3,x,x,-2
CCc1ccc(Oc2coc3cc(OCC(=O)Nc4cc(C)ccc4C)ccc3c2=O)cc1,1.4,3.1,22,i,4,16,-8,1,-3.5,x
CCOC(=O)c1c(C)n(CC)c2ccc(OC(=O)c3ccc([N+](=O)[O-])cc3)cc12,1.8,0.1,-1,i,9,-5,12,9,-2.0,-3
CN(C)C(=O)c1ccc(-c2cc(C(F)(F)F)n(C)n2)s1,4.2,-4.1,-8,i,x,15,0,x,x,2
Cc1ccc(C2(c3ccc(C)cc3)NC(=O)N(CC(N)=O)C2=O)cc1,0.1,-4.2,x,i,0,9,-8,2,1.0,-5
O=C(Nc1nccs1)C1(S(=O)(=O)c2ccc(Cl)cc2)CC1,-1.5,0.0,-4,i,-1,0,-20,-8,-3.3,-6
COc1ccc(C(=O)Nc2nc(-c3ccc(S(=O)(=O)N4CCOCC4)cc3)cs2)cc1,x,-1.9,11,x,x,3,13,x,x,-5
Cc1cc(C(=O)N2CCN(c3ccc([N+](=O)[O-])cc3)CC2)co1,5.6,-1.8,x,i,-2,7,-7,-8,3.1,2
Cc1nonc1-c1ccc2c(c1)OCO2,-2.5,0.2,-2,i,14,-5,-5,14,-0.4,-4
O=C(NCc1ccc(C(=O)O)cc1)OCc1ccccc1,-2.2,-1.1,-5,i,4,2,2,-1,-0.8,-3

Not all compounds are listed, so the mix of outcomes need not match the whole.
